TRPML1 blocker: inhibitors of human TRPML1 channel | TRPML1-inducible cells, Ca2+ dye fluorescence, FDSS; stronger effect = lower value; inhibition of EC80 agonist-evoked calcium signal | activity change, negative = inhibition, % (test concentration not listed) | AID 624415 | actives 0.02% (n = 390,000) | Q9GZU1; in the data active means activity change below about -50%; inconclusive means about -30% to -50%; inactive means above about -30%;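 also: stimulus is agonist 54-4 at its EC80 concentration; % is scaled to controls: 0 for no effect and ±100 for the full control effect; compound concentration not given in the record; the text of the record puts the active cut at -80%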
Target sequence (Q9GZU1 whole entry, looked up): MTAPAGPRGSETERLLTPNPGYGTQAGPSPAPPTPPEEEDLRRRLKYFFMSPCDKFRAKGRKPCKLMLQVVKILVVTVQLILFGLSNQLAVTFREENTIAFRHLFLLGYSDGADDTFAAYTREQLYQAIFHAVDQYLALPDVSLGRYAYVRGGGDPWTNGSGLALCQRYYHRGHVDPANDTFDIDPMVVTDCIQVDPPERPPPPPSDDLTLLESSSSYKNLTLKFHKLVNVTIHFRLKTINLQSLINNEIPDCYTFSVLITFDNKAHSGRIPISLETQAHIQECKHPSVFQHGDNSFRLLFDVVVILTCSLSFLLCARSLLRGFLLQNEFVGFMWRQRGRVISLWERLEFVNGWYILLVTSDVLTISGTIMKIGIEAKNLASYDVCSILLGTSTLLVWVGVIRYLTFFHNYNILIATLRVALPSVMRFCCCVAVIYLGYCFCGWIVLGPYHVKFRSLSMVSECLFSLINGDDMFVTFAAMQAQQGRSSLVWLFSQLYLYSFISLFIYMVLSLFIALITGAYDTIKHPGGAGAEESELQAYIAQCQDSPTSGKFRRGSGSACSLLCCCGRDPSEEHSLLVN
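TRPML1-DL cells, Tet-induced overnight (~16 h, 37 °C) at 1,500 cells/well, were loaded with Ca8 no-wash dye plus quencher for 45-90 min at room temperature. Compounds were pinned during FDSS kinetic reading; agonist 54-4 at EC80 (4 uM final) then added.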
Sfp PPTase inh: inhibitors of Bacillus subtilis Sfp phosphopantetheinyl transferase; actives 3.5% (n = 310,000); Biochemical Sfp PPTase activity, qHTS; AID 1490; Q9F4F7; Potency, µM, for inactives: max response, negative = inhibition, most hits filed as inhibitors; active = well fitted inhibition curve with a large enough effect; inconclusive = small, poorly fitted or top-dose-only effect, or another doubt; inactive = no such curve, though single readings can be large or run the other way;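 also: the enzyme is Sfp with the accession as filed and its product quenches rhodamine fluorescence; potency is read from the fitted curve at half-maximal effect; 0% = enzyme reaction without inhibitor and -100% = no enzyme wells; top concentration of the series not given in the record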
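Step 1, compound plus 15 nM Sfp-PPTase, 15 min, room temperature. Step 2, add rhodamine-CoA (5 uM) and BHQ-2-YbbR (12.5 uM). Step 3, read 525/598 nm fluorescence at 0 and 30 min.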
PINK1 modulator: modulators of PINK1 expression; AID 624263; actives 0.2% (n = 410,000); Potency, µM (highest dose often 76.6 µM), for the others: at the top dose activation (PINK1 increase), most hits filed as activators; PINK1 immunofluorescence, high-content cytometry, 24 h; active = well fitted activation curve with a large enough effect; inconclusive = small, poorly fitted or top-dose-only effect; inactive = flat fitted curve, though single readings scatter; cell line not stated here;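 also: potency is read from the fitted curve at half-maximal effect; % of control where 0% means no effect; nearly all actives have a fitted effect of over 65% in size; a mitochondrial uncoupler was the plate control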
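Measures PINK1 amount and localization on or inside mitochondria by immunofluorescence. Stable cells get compounds at 5 concentrations for 24 hours before fixation and staining; CCCP controls included.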
ClpP mod: qHTS Assay for Activators of ClpP; AID 651965, 2013; Potency, µM (top dose mostly 57.5 µM), without a hit: at the highest dose activity change, negative = active; purified B. subtilis ClpP, FRET peptide cleavage, 20 min; actives 1.9% (n = 340,000); ATP-dependent Clp protease proteolytic subunit (Bacillus subtilis (strain 168)), P80244; active = well fitted falling curve with a large enough effect; inconclusive = small, poorly fitted or top-dose-only effect; inactive = no such curve, though single readings can be large or run the other way; also: potency is read from the fitted curve at half-maximal effect; the source files actives as falling curves though it sought activators and does not explain the sign; nearly all actives have a fitted effect of over 65% in size; many hits overshoot -100%
Target sequence (P80244 whole entry, looked up): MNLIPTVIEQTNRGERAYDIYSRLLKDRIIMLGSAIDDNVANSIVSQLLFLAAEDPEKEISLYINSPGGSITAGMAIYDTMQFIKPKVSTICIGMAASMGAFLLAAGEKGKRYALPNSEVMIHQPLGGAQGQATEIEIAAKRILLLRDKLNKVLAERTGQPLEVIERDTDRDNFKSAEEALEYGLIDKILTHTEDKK
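Purified B. subtilis ClpP, 10 microg/mL final in Tris/HCl pH8 with KCl, BSA, glycerol and Tween-20, cleaved an Abz/nitrotyrosine-quenched decapeptide. Fluorescence (ex 320, em 430) was read at 0 and 20 min at room temperature. Delta was normalized to 5.8 microM ADEP and DMSO/no-enzyme controls.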
TRPML1 ag: human mucolipin-1 channel agonism; Q9GZU1; TRPML1-expressing cells, Ca2+ dye fluorescence, FDSS; host cell line not named in the record; reference of the full effect not given here; activation, % (concentration not given with the values); actives 0.12% (n = 410,000); in the data active = activation above about 50%; inconclusive = about 30% to 50%; inactive = below about 30%; also: 0% is about no effect; the text of the record puts the active cut at 80%
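Agonist activity was taken from a 110 s kinetic Ca2+ dye read on the FDSS after pinning compounds onto TRPML1-DL cells. The cells were seeded at 1,500/well with Tet inducer, incubated about 16 h, then dye-loaded at room temperature.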
Menin MLL FP FL: menin-MLL binding inhibition, fluorescein peptide | Fluorescence polarization, fluorescein-MLL peptide displacement from menin | FP activity change, % at 61.4 µM | 290,000 tested, under 10 active | AID 1766; inconclusive = falling polarisation curve, or a change in total fluorescence; inactive = total fluorescence flat and polarisation flat or rising; no compound was filed as active; the % refers to the polarisation; negative = inhibition;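 also: % of control where 0% means no effect; inhibitors lower the polarisation; unlabelled MLL peptide was the positive control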
TRPV1 potentiator: enhances activation of the human vanilloid receptor TRPV1; TRPV1-expressing cells, Fluo-8 calcium influx, capsaicin EC20 potentiation; host cell line not named in the record; control for the full effect not named in the record; AID 540277; actives 0.02% (n = 320,000); potentiation, % at 8.33 µM; active means potentiation above 80%; inconclusive means 30% to 80%; inactive means below 30%; also: 0% is about no effect
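Fluo-8 calcium influx in TRPV1-expressing cells, kinetic read (ex 480/em 520 nm). Compound added and read 3 min for agonist activity, followed by capsaicin at EC20 final and 2 min further read for enhancement.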
* marks the source's active call; other numbers are inactive results; & = joins results of further samples; [ ] = another dose, or the depositor's remark.

`Cc1ccc(/C=C/C(=O)Nc2ccccc2C(N)=O)o1` gave TRPML1 blocker 7, PINK1 modulator 0.4%, ClpP mod -8.7% and TRPML1 ag -0.5.
Screening COc1cccc(/C=N/n2c(C3CCCCC3)n[nH]c2=S)c1OC returned TRPML1 blocker 10, Sfp PPTase inh -3%, PINK1 modulator 5.6%, ClpP mod 1.0%, TRPML1 ag 0.5, Menin MLL FP FL -2.7 and TRPV1 potentiator -1.
For CCOc1cccc(-c2nn(-c3ccccc3)cc2/C=C(/C#N)C(=O)NCCCn2ccnc2)c1 the results were TRPML1 blocker -6, Sfp PPTase inh inconclusive, PINK1 modulator -2.7%, ClpP mod 25µM*, TRPML1 ag 0.1, Menin MLL FP FL 7.5 and TRPV1 potentiator -5.
`O=C(CCc1nnc(-c2ccccc2)o1)NCc1c(F)cccc1F` gave TRPML1 blocker -9, Sfp PPTase inh 13%, PINK1 modulator -1.0%, ClpP mod 1.1%, TRPML1 ag -1.0, Menin MLL FP FL 0.4 and TRPV1 potentiator 2.
`COCC(C)n1c(SCc2ccc(C(=O)OC)cc2)nc2ccccc2c1=O` (configuration not stated) gave TRPML1 blocker -6, Sfp PPTase inh -19%, PINK1 modulator 1.6%, TRPML1 ag 1.0, Menin MLL FP FL 2.4 and TRPV1 potentiator 5.
Cc1ccc(CC(=O)NO)cc1 was read as PINK1 modulator 1.0%, ClpP mod 0.1% and TRPML1 ag -0.4.
CONc1nc(NC(C)(C)C)nc(OCC#N)n1 was read as TRPML1 blocker -8, Sfp PPTase inh 8%, PINK1 modulator 1.2%, ClpP mod 0.7%, TRPML1 ag -0.3, Menin MLL FP FL 11 and TRPV1 potentiator 18.
CCCCC12CN3CC(C)(CN(C1)C31C(=O)N(C)c3ccc(C)cc31)C2=O (configuration not stated) was read as TRPML1 blocker 1, Sfp PPTase inh 8%, PINK1 modulator -2.6%[38.3 µM], ClpP mod -1.0%, TRPML1 ag 0.3, Menin MLL FP FL 0.7 and TRPV1 potentiator -12.
O=C(Nc1ccc(F)cc1)Nc1csc2c1CCCC2 was read as TRPML1 blocker 4, PINK1 modulator 1.1%, ClpP mod -0.9% and TRPML1 ag -0.3.
Screening O=C(C1=C[C@@H](c2ccccc2)C[C@@H](OCc2ccc(CO)cc2)O1)N1CCOCC1 returned TRPML1 blocker 0, Sfp PPTase inh 8%, PINK1 modulator 2.2%, ClpP mod 1.8%, TRPML1 ag -0.8, Menin MLL FP FL -5.1 and TRPV1 potentiator 6.
For CCOC(=O)N1CCN(C(=O)COc2ccc(Br)cc2)CC1 the results were TRPML1 blocker -3, Sfp PPTase inh 7%, PINK1 modulator -0.3%, ClpP mod 2.1%, TRPML1 ag -0.7, Menin MLL FP FL 2.2 and TRPV1 potentiator -12.
For COc1ccc(-c2oc(NC(C)=O)c(C#N)c2-c2ccc(OC)cc2)cc1 the results were TRPML1 blocker 2, Sfp PPTase inh -5%, PINK1 modulator 2.8%, ClpP mod -11%, TRPML1 ag 3.2, Menin MLL FP FL -0.7 and TRPV1 potentiator -19.
Screening Cc1ccc(Cl)cc1-c1cc(C(=O)NCc2ccco2)[nH]n1 returned PINK1 modulator 2.6%, ClpP mod 0.9% and TRPML1 ag -0.9.
COc1cc(NC(=O)CSc2nc3[nH]c(=O)cc(O)c3s2)cc(OC)c1OC was read as TRPML1 blocker -14, PINK1 modulator 3.3%, ClpP mod 1.3%, TRPML1 ag -0.6 and TRPV1 potentiator 13.
`CCCCOc1ccc(C(=O)N/C(=C/C=C/c2ccccc2)C(=O)NCCCO)cc1` gave TRPML1 blocker -8, Sfp PPTase inh -8%, PINK1 modulator 6.6%, TRPML1 ag 0.0, Menin MLL FP FL -0.1 and TRPV1 potentiator -12.
For COc1ncc(C2=CC(=O)CC(C)(C)C2)cn1 the results were TRPML1 blocker 13, PINK1 modulator 0.8%, ClpP mod 1.6%, TRPML1 ag -0.2 and TRPV1 potentiator 3.
Screening CCc1ccc(NC(=O)C2CCN(S(=O)(=O)c3c(C)noc3/C=C\c3ccc(OC)cc3)CC2)cc1 returned TRPML1 blocker 8, PINK1 modulator 0.5%, ClpP mod -5.1% and TRPML1 ag -0.1.
Screening COc1cc(NC(=O)c2ccc3c(c2)C(=O)N(CCC(C)C)C3=O)c(C(=O)O)cc1OC returned TRPML1 blocker 33, Sfp PPTase inh 9%, PINK1 modulator 1.5%, ClpP mod 0.4%, TRPML1 ag 0.4, Menin MLL FP FL -10.0 and TRPV1 potentiator -5.
CN(C)S(=O)(=O)c1cccc(NC(=O)c2cccc(S(=O)(=O)N3CCc4ccccc43)c2)c1 was read as TRPML1 blocker 11, PINK1 modulator 4.0%, ClpP mod -4.1%, TRPML1 ag -0.1 and TRPV1 potentiator 29.
For Cc1cccc(NC(=O)c2ccc(CN3CC(=O)N4CCCCC4C3=O)cc2)c1C (configuration not stated) the results were TRPML1 blocker 27, PINK1 modulator -0.1%, ClpP mod -1.7% and TRPML1 ag 2.0.
CCN(CC(=O)Nc1c(F)cccc1F)C(=O)c1ccc(N2CCCCC2)c([N+](=O)[O-])c1 was read as TRPML1 blocker 28, Sfp PPTase inh 7%, PINK1 modulator -0.3%, ClpP mod -0.8%, TRPML1 ag 1.7 and TRPV1 potentiator -13.
For CCC(=O)Nc1sc2c(c1C(=O)Nc1ccc(Br)cc1)CCCCC2 the results were TRPML1 blocker 3, PINK1 modulator 0.5%, ClpP mod -13% and TRPML1 ag 2.5.
Screening O=C(CCl)Nc1ccc(S(=O)(=O)NC2=NCCCCC2)cc1 returned TRPML1 blocker 8, PINK1 modulator -2.0%, ClpP mod 1.6% and TRPML1 ag -0.2.
`CCN1CCN(Cc2cc(=O)oc3ccc(Cl)cc23)CC1` gave TRPML1 blocker 0, Sfp PPTase inh 3%, PINK1 modulator -1.1%, ClpP mod -6.1%, TRPML1 ag -0.3, Menin MLL FP FL -2.0 and TRPV1 potentiator -11.
Screening NCCCC[C@@H]1NC(=O)[C@H](CCC(=O)O)NC(=O)c2cc([N+](=O)[O-])cc(I)c2OCC[C@@H](C(N)=O)NC1=O returned TRPML1 blocker -12, Sfp PPTase inh 9%, PINK1 modulator 1.0%, ClpP mod 1.7%, TRPML1 ag -0.5, Menin MLL FP FL 5.0 and TRPV1 potentiator 1.
For COc1ccc(NC(=O)CCCNC(=O)Cn2cnc3sc4c(c3c2=O)CCCC4)c(OC)c1 the results were TRPML1 blocker 8, Sfp PPTase inh 10%, PINK1 modulator 5.2%, ClpP mod 1.1%, TRPML1 ag 0.5, Menin MLL FP FL -7.6 and TRPV1 potentiator 6.
For Cc1ccc(NC(=O)CCC(=O)c2cccs2)c(O)c1 the results were TRPML1 blocker 3, Sfp PPTase inh 17%, PINK1 modulator -0.4%, ClpP mod -1.6%, TRPML1 ag -0.7, Menin MLL FP FL 0.8 and TRPV1 potentiator 18.
O=C(O)/C=C/C(=O)Nc1ccc2c(c1)NC(=O)CO2 was read as TRPML1 blocker -18, Sfp PPTase inh 7%, PINK1 modulator 1.0%, TRPML1 ag -0.3, Menin MLL FP FL 0.2 and TRPV1 potentiator 3.
Screening Cc1ccc(-c2cn(-c3ccccc3)c3[n+]2CCCS3)cc1 returned TRPML1 blocker -3&-7, Sfp PPTase inh 15%&18%, PINK1 modulator -0.3%&2.4%, ClpP mod -0.3%&-3.8%, TRPML1 ag -0.9&1.1, Menin MLL FP FL -2.3&0.6 and TRPV1 potentiator 2&5.
CCOC(=O)C1CCN(c2ncnc3c2cnn3-c2ccc(OC)cc2)CC1 was read as TRPML1 blocker -7, Sfp PPTase inh 10%, PINK1 modulator -2.5%[38.3 µM], ClpP mod inconclusive, TRPML1 ag 0.3, Menin MLL FP FL 1.3 and TRPV1 potentiator -8.
For CN1CCN(C(=O)CCN2C(=O)/C(=C\c3ccc(Cl)cc3)SC2=S)CC1 the results were TRPML1 blocker 30, Sfp PPTase inh -4%, PINK1 modulator 3.1%, ClpP mod -0.9%, TRPML1 ag 1.0 and TRPV1 potentiator 29.
Cc1cc(/C=C(\C#N)C(N)=O)c(C)n1-c1ccc(N2CCOCC2)c([N+](=O)[O-])c1 was read as TRPML1 blocker 6, Sfp PPTase inh -17%, PINK1 modulator -3.8%, ClpP mod -1.1%, TRPML1 ag 0.2, Menin MLL FP FL -1.8 and TRPV1 potentiator -15.
Cn1nnnc1SCC(=O)Nc1cc(C(F)(F)F)ccc1N1CCOCC1 was read as TRPML1 blocker -10, Sfp PPTase inh 20%, PINK1 modulator 1.0%, TRPML1 ag -0.2, Menin MLL FP FL 0.1 and TRPV1 potentiator 2.
For CCC(=O)NC1=C(NC(C)c2ccccc2)C(=O)c2ccccc2C1=O (configuration not stated) the results were TRPML1 blocker 11, Sfp PPTase inh -17%, PINK1 modulator -0.9%, ClpP mod -5.9%, TRPML1 ag -0.2, Menin MLL FP FL 0.3 and TRPV1 potentiator 9.
COc1ccc(C(=O)NC(C(=O)OCC(=O)Nc2sccc2C(N)=O)C(C)C)cc1 (configuration not stated) was read as TRPML1 blocker 63, PINK1 modulator 0.3%, ClpP mod 30%, TRPML1 ag 1.2 and TRPV1 potentiator 2.
`CS(=O)(=O)N(CC(=O)N1CCCC1)Cc1ccc(F)cc1` gave TRPML1 blocker -6, Sfp PPTase inh 5%, PINK1 modulator -0.9%, ClpP mod 1.1%, TRPML1 ag -0.7, Menin MLL FP FL 1.8 and TRPV1 potentiator -1.
`COc1cccc(N2CCCn3c2nc2c3c(=O)n(CCN3CCOCC3)c(=O)n2C)c1` gave Sfp PPTase inh 4%, Menin MLL FP FL 5.9 and TRPV1 potentiator 5.
`CCOC(=O)c1ccccc1C(=O)N1CCOCCOCCOCC1` gave TRPML1 blocker -26, Sfp PPTase inh 6%, PINK1 modulator 0.8%, TRPML1 ag 0.4 and TRPV1 potentiator 4.
